FGF22 binding – FGF22 (human) thermal shift binding; Q9HCT0; recombinant FGF22 thermal shift, SYPRO orange fluorescence; percent of sucrose octasulfate shift, DMSO zero; calls only at 9.99 µM; 1.5% of 340,000 active;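 active means melting point raised past a set limit in the mean and every replicate; three in four hits are not shown here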
Target sequence (Q9HCT0 whole entry, looked up): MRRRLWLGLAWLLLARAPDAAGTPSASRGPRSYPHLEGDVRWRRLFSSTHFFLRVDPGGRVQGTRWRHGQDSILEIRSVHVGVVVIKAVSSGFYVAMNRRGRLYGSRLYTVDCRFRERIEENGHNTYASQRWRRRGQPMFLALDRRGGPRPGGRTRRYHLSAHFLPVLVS
Ecoli rRNA inh – inhibits bacterial ribosomal RNA function over humanized ribosomes. 1.6% of 350,000 active. E. coli WT GFP vs humanized-ribosome RFP mutants, fluorescence, 24 h; stronger effect = lower value; DMSO median 0, no signal -100. GFP signal change (wild-type ribosome), % (test concentration not listed);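 active means significant combined selectivity score with lowered wild-type GFP, culture density cut under 30%, mutant RFP and density less affected; inactive means any of these conditions unmet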; further: one replicate is shown; some compounds called inactive have numbers as strong as hits
Ecoli rRNA inh OD600 – recorded beside Ecoli rRNA inh, whose call it bears; OD600 change, %; measured here: OD600 growth;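 optical density of the mix in the first replicate; 0 = DMSO median and -100 = no signal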
Ecoli rRNA inh RFP – second read-out of Ecoli rRNA inh, no call of its own (marks repeat the call); RFP signal change, %; measured here: RFP humanized mutant strains;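 first replicate; 0 = DMSO median and -100 = no signal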
Starred values were filed as active, the others as inactive; i = inactive; + = active, no number; & = joins results of further samples. These rows are one share of the data; count on the stated rates, not on these rows.

FGF22 binding	Ecoli rRNA inh	Ecoli rRNA inh OD600	Ecoli rRNA inh RFP	compound
i	2.3	9.8	-3.7	COc1ccc2c3c([nH]c2c1)[C@@H](CO)N(C(=O)c1ccncc1)CC31CN(C(=O)C2CCC2)C1
i	4.4	10.8	-2.6	C[C@H]1CN([C@@H](C)CO)C(=O)c2cc(-c3ccc(C#N)cc3)cnc2O[C@H]1CN(C)C(=O)CN(C)C
i	-3.2	-0.9	-3.8	Cc1ccc(S(=O)(=O)NCC[C@H]2CC[C@H](NC(=O)Nc3ccccc3F)[C@H](CO)O2)cc1
i	-1.0	0.2	0.9	Cc1ccc(S(=O)(=O)N(C)C[C@H]2Oc3ccc(NC(=O)Cc4cn(C)c5ccccc45)cc3C(=O)N([C@H](C)CO)C[C@H]2C)cc1
i	-2.9	-5.6	0.5	COc1ccc(NC(=O)N(C)C[C@@H]2Oc3ccc(NS(=O)(=O)c4ccccc4)cc3C(=O)N([C@@H](C)CO)C[C@@H]2C)cc1
i	0.4	2.2	0.5	CNC[C@@H]1Oc2ccc(NC(=O)Nc3ccc(F)cc3)cc2C(=O)N([C@@H](C)CO)C[C@H]1C
i	2.1	-3.8	-0.2	Cc1ccc(S(=O)(=O)Nc2ccc3c(c2)C(=O)N([C@H](C)CO)C[C@H](C)[C@H](CN(C)S(=O)(=O)c2ccc(F)cc2)OCCCC[C@@H](C)O3)cc1
i	-1.3	-1.4	1.8	CC(C)C(=O)Nc1ccc2c(c1)C(=O)N(C)[C@H]1CC[C@H](CC(=O)NCc3ccccc3F)O[C@@H]1CO2
i	1.3	-2.5	0.4	Cc1noc(C)c1S(=O)(=O)N(C)C[C@H]1Oc2ccc(NS(=O)(=O)c3cccs3)cc2CC(=O)N([C@H](C)CO)C[C@H]1C
i	-2.9	-2.9	0.0	C[C@H]1CN([C@@H](C)CO)C(=O)c2cc(NC(=O)Nc3ccc4c(c3)OCO4)ccc2O[C@@H]1CN(C)S(=O)(=O)c1cn(C)cn1
i	1.9	3.3	-3.2	COC(=O)C[C@H]1CC[C@@H]2[C@H](COc3ccc(NC(=O)C4CC4)cc3C(=O)N2C)O1
i	1.8	-0.4	6.3	CC(C)CNc1cccc2c1S(=O)(=O)N[C@@H](C)CO2
i	-1.3	0.1	-3.1	Cc1cc(C(=O)Nc2cccc3c2O[C@@H](CN(C)Cc2ccc(C(=O)Nc4ccccc4N)cc2)[C@H](C)CN([C@@H](C)CO)C3=O)n(C)n1
i	-0.3	2.4	1.0	CN(C)CC(=O)N1[C@@H](CO)[C@H](c2ccccc2)C12CN(C(=O)c1cccc(F)c1)C2
i	-3.5	10.0	4.6	COc1ccc(C#Cc2ccc3c(c2)[C@@H]2[C@@H](CCN2C(=O)c2ccccn2)[C@@H](CO)N3)cc1
i	0.8	-0.7	0.2	Cc1noc(C)c1NC(=O)N(C)C[C@H]1Oc2ccc(NC(=O)C3CCCCC3)cc2C(=O)N([C@@H](C)CO)C[C@@H]1C
i	2.1	11.5	-1.0	O=C(C[C@@H]1C[C@H]2c3cc(NC(=O)c4cccnc4)ccc3O[C@H]2[C@@H](CO)O1)NCCN1CCCCC1
i	2.0	-2.7	-3.1	CO[C@@H]1CN(C)C(=O)c2ccc(NC(=O)c3cc(C)on3)cc2OC[C@@H](C)N(CC2CC2)C[C@H]1C
i	2.9	12.4	-2.3	C[C@@H]1CN([C@H](C)CO)C(=O)c2cc(C#CC3CC3)cnc2O[C@@H]1CN(C)Cc1ccncc1
i	-2.1	7.9	3.2	COc1ccc2c3c(n(C)c2c1)[C@H](CO)N(Cc1ccc2c(c1)OCO2)CC31CCN(C(C)=O)CC1
i	-1.3	0.9	-1.7	N#C[C@@H]1[C@@H](c2ccccc2)[C@@H](CO)N1C(=O)c1cc(Cl)cc(Cl)c1
i	2.2	3.7	-1.4	CCNC(=O)Nc1ccc2c(c1)C(=O)N(C)[C@@H]1CC[C@@H](CC(=O)N[C@@H](C)c3ccccc3)O[C@H]1CO2
i	0.1	0.3	1.6	C[C@@H]1CN([C@H](C)CO)C(=O)CCCn2nncc2CO[C@@H]1CN(C)Cc1cccc2c1OCCCO2
i	-1.2	-35.2	23.4	CO[C@@H]1CN(C)C(=O)c2ccc(NC(=O)c3ccc(Oc4ccccc4)cc3)cc2OC[C@@H](C)NC[C@H]1C
i	1.4	-12.9	7.8	FC(F)(F)c1ccc(Cl)c(CN2CCN(c3ncc(Cc4ccccc4)cn3)CC2)c1
i	-2.6	-7.5	-1.1	CC(C)C#Cc1ccc2c(c1)O[C@H](CN(C)C(=O)c1cnccn1)[C@@H](C)CN([C@H](C)CO)S2(=O)=O
i	-17.4	-54.5	28.5	C[C@@H]1CN([C@H](C)CO)C(=O)Cc2cc(NC(=O)Nc3ccc4c(c3)OCO4)ccc2O[C@@H]1CN(C)Cc1ccc2c(c1)OCO2
i	3.0	8.9	-2.8	C[C@@H]1CN([C@@H](C)CO)C(=O)Cc2cc(NC(=O)CCCCCC(=O)Nc3ccccc3N)ccc2O[C@@H]1CN(C)C(=O)Nc1ccccc1
i	2.6	1.9	0.7	C/C=C/c1cnc2c(c1)C(=O)N([C@H](C)CO)C[C@@H](C)[C@@H](CN(C)Cc1ccc(F)cc1)O2
i	2.1	-4.3	-0.1	C[C@@H]1CN([C@H](C)CO)C(=O)Cc2cc(NS(C)(=O)=O)ccc2O[C@H]1CN(C)Cc1ccc(-c2ccccc2)cc1
i	-3.4	-8.0	-2.7	COc1ccc(CNC(=O)C[C@@H]2CC[C@H](NC(=O)c3cccc(F)c3)[C@@H](CO)O2)cc1
i	-3.1	-2.7	0.8	COc1ccc(S(=O)(=O)N(C)C[C@H]2OCCCC[C@H](C)Oc3ccc(NC(=O)NC(C)C)cc3C(=O)N([C@@H](C)CO)C[C@H]2C)cc1
i	6.0	4.3	0.8	CN(C)c1ccc2c(c1)[C@H]1C[C@H](CC(=O)O)O[C@@H](CO)[C@H]1O2
i	1.5	6.8	-1.7	COc1ccc(CN2CC3(CN(C(C)=O)C3)c3c([nH]c4cc(OC)ccc34)[C@H]2CO)cc1
i	0.6	4.3	0.0	Cc1ccc(S(=O)(=O)N(C)C[C@H]2Oc3ncc(-c4ccncc4)cc3C(=O)N([C@@H](C)CO)C[C@H]2C)cc1
i	1.1	-3.3	-1.4	C[C@@H]1CCCCO[C@@H](CN(C)CC2CC2)[C@@H](C)CN([C@H](C)CO)C(=O)c2cc(NS(=O)(=O)c3ccccc3)ccc2O1
+	1.1	-0.5	4.1	C[C@@H]1CCCCO[C@H](CN(C)Cc2ccc(Cl)c(Cl)c2)[C@@H](C)CN([C@H](C)CO)C(=O)c2cc(NS(=O)(=O)c3cccs3)ccc2O1
i	0.3	-1.9	2.3	C[C@@H]1CCCCO[C@@H](CN(C)C(=O)Cc2ccccc2)[C@H](C)CN([C@H](C)CO)C(=O)c2cc(NC(=O)NC3CCCCC3)ccc2O1
i	4.9	18.4	-1.0	CC(C)NC(=O)N(C)C[C@@H]1OCCCC[C@@H](C)Oc2ccc(NC(=O)c3ccncc3)cc2C(=O)N([C@H](C)CO)C[C@@H]1C
i	-0.5	1.3	0.0	Cc1noc(C)c1S(=O)(=O)Nc1ccc2c(c1)C(=O)N([C@@H](C)CO)C[C@H](C)[C@@H](CN(C)S(=O)(=O)c1cccs1)OCCCC[C@@H](C)O2
i	2.5	9.8	-1.6	Cc1ccc(S(=O)(=O)Nc2ccc3c(c2)C(=O)N([C@H](C)CO)C[C@H](C)[C@@H](CN(C)CC2CC2)OCCCC[C@@H](C)O3)cc1
i	-0.9	-1.0	-1.5	COc1ccccc1S(=O)(=O)N[C@@H]1CC[C@@H](CCNC(=O)C2CCCCC2)O[C@H]1CO
i	-4.7	10.7	3.9	N#C[C@@H]1[C@@H](c2ccccc2-c2ccc(F)cc2)[C@H](CO)N1c1ncc(-c2ccccc2)s1
i	0.3	-2.3	0.6	Cc1noc(C)c1NC(=O)Nc1ccc2c(c1)C(=O)N([C@H](C)CO)C[C@@H](C)[C@H](CN(C)S(=O)(=O)c1ccc(Cl)cc1)OCCCC[C@@H](C)O2
i	-2.0	4.7	-5.5	C[C@@H]1CCCCO[C@H](CN(C)C(=O)C2CCCCC2)[C@@H](C)CN([C@@H](C)CO)C(=O)c2cc(NC(=O)Nc3ccc(C(F)(F)F)cc3)ccc2O1
i	1.9	1.8	-0.8	Cc1ccc(OC(=O)N(C)C[C@@H]2OCc3ccccc3-c3ccccc3C(=O)N([C@@H](C)CO)C[C@@H]2C)cc1
i	-1.0	-4.7	-0.2	COc1cccc(C#Cc2ccc([C@H]3[C@@H](C#N)N(C(=O)C4CCC4)[C@@H]3CO)cc2)c1
i	-3.0	-3.4	-1.1	COc1ccc2c3c(n(C)c2c1)[C@H](CO)N(C(=O)CC1CC1)CC31CCN(C(=O)NC(C)C)CC1
i	-4.3	-5.1	1.5	Cc1noc(C)c1NC(=O)N[C@@H]1CC[C@H](CC(=O)Nc2ccc(-c3ccccc3)cc2)O[C@@H]1CO
i	-0.1	-4.7	4.2	COc1ccc(-c2ccc3c(c2)[C@H]2[C@H](CCN2S(=O)(=O)c2ccccc2C)[C@@H](CO)N3)cc1

The list goes on:
FGF22 binding	Ecoli rRNA inh	Ecoli rRNA inh OD600	Ecoli rRNA inh RFP	compound
i	2.4	-3.9	-3.8	Cc1noc(C)c1S(=O)(=O)N(C)C[C@H]1Oc2ccc(NC(=O)CCN3CCOCC3)cc2CC(=O)N([C@H](C)CO)C[C@H]1C
i	0.4	-5.8	0.9	C[C@H](CO)N1C[C@H](C)[C@H](CN(C)Cc2ccc(-c3ccccc3)cc2)Oc2ccc(NS(=O)(=O)c3ccc(Cl)cc3)cc2C1=O
i	4.3	16.0	-1.8	O=C(C[C@H]1CC[C@H](NC(=O)Nc2ccc(F)cc2)[C@H](CO)O1)NCc1ccccn1
i	-0.8	-1.0	1.2	CCCN(C)C[C@@H]1OCCCC[C@H](C)Oc2ccc(NC(=O)C3CCCCC3)cc2C(=O)N([C@@H](C)CO)C[C@@H]1C
i	1.1	0.4	0.5	C[C@H]1CN([C@@H](C)CO)S(=O)(=O)c2ccc(-c3cccnc3)cc2O[C@@H]1CN(C)C(=O)CN(C)C
i	-2.0&-60.9	-2.1&-78.1	-0.3&-15.5	O=C(NCC[C@@H]1CC[C@H](NC(=O)C2CC2)[C@H](CO)O1)Nc1ccc(C(F)(F)F)cc1
i	1.2	2.6	-1.0	CO[C@@H]1CN(C)C(=O)c2ccc(NC(=O)C3CC3)cc2OC[C@H](C)N(C(=O)c2cnccn2)C[C@@H]1C
i	8.0	0.5	1.3	C[C@@H]1CN([C@H](C)CO)C(=O)c2cc(NS(=O)(=O)c3cn(C)cn3)ccc2O[C@@H]1CN(C)C(=O)NC1CCCCC1
i	1.8	-1.5	1.4	COc1ccc(CN(C)C[C@@H]2Oc3ccc(NC(=O)Nc4ccccc4)cc3C(=O)N([C@H](C)CO)C[C@@H]2C)cc1
i	2.0	-1.0	2.7	Cc1ccc(S(=O)(=O)N[C@H]2CC[C@H](CCn3cc(C4CCCC4)nn3)O[C@@H]2CO)cc1
i	4.4	1.7	2.0	COc1ccc(CN(C)C[C@@H]2Oc3ccc(NS(=O)(=O)c4ccc(OC)cc4)cc3C(=O)N([C@H](C)CO)C[C@@H]2C)cc1
i	0.1	-7.8	-0.2	CCC(=O)Nc1ccc2c(c1)C(=O)N(C)[C@@H]1CC[C@@H](CC(=O)NCCN3CCCCC3)O[C@@H]1CO2
i	-3.3	-11.2	9.6	C[C@@H]1CN([C@@H](C)CO)S(=O)(=O)c2ccc(C#Cc3ccccc3F)cc2O[C@H]1CN(C)C(=O)Cc1ccncc1
i	-2.5	3.4	-0.3	CCC(=O)N(C)C[C@@H]1Oc2ncc(-c3cccc(OC)c3)cc2C(=O)N([C@H](C)CO)C[C@H]1C
i	0.1	5.2	-2.0	C[C@@H]1CN([C@H](C)CO)C(=O)c2cc(NC(=O)CCN3CCOCC3)ccc2O[C@@H]1CN(C)Cc1ccc(C(=O)Nc2ccccc2N)cc1

4 neighbouring compounds out of the list so far:
FGF22 binding	Ecoli rRNA inh	Ecoli rRNA inh OD600	Ecoli rRNA inh RFP	compound
i	1.8	-1.5	1.4	COc1ccc(CN(C)C[C@@H]2Oc3ccc(NC(=O)Nc4ccccc4)cc3C(=O)N([C@H](C)CO)C[C@@H]2C)cc1
i	2.0	-1.0	2.7	Cc1ccc(S(=O)(=O)N[C@H]2CC[C@H](CCn3cc(C4CCCC4)nn3)O[C@@H]2CO)cc1
i	4.4	1.7	2.0	COc1ccc(CN(C)C[C@@H]2Oc3ccc(NS(=O)(=O)c4ccc(OC)cc4)cc3C(=O)N([C@H](C)CO)C[C@@H]2C)cc1
i	0.1	-7.8	-0.2	CCC(=O)Nc1ccc2c(c1)C(=O)N(C)[C@@H]1CC[C@@H](CC(=O)NCCN3CCCCC3)O[C@@H]1CO2
